Vaccinia Venus = vaccinia inhibition (Venus reporter). Vaccinia virus Venus reporter expression, fluorescence. Potency, µM (doses to about 36.5 µM), inactives show at the highest dose activity change, negative = inhibition, actives largely listed as inhibitors. actives 0.46% (n = 330,000); active means well fitted inhibition curve with a large enough effect; inconclusive means small, poorly fitted or top-dose-only effect; inactive means no such curve, though single readings can be large or run the other way; tested in A549 cells; note: nearly all actives have a fitted effect of over 30% in size; inactives centre near -10
Vaccinia mCherry = vaccinia inhibition (mCherry reporter); Vaccinia virus mCherry reporter infection, fluorescence; about a quarter of the inactives have no number; Potency, µM (highest dose often 36.5 µM), inactives show top-dose activity change, negative = inhibition, actives largely listed as inhibitors; actives 0.63% (n = 310,000); active = well fitted inhibition curve with a large enough effect; inconclusive = small, poorly fitted or top-dose-only effect; inactive = no such curve, though single readings can be large or run the other way; tested in A549 cells; note: nearly all actives have a fitted effect of over 35% in size; inactives centre near -10
Numbers without * were called inactive; i = inactive; u = inconclusive; x = not tested or not shown; & = joins results of further samples; [ ] = dose if it differs, or a comment. % is set by controls: 0 for no effect and ±100 for the full control effect; potency is the fitted concentration of half-maximal effect.

smiles | Vaccinia Venus | Vaccinia mCherry
Cc1cc(C)nc(N(C#N)CCOc2ccc(Cl)cc2)n1 | -23% | -24%[1.46 µM]
Cc1ccccc1NS(=O)(=O)c1ccc(C(=O)N2CCN(S(=O)(=O)c3ccccc3)CC2)cc1 | -1% | -12%
Cc1c(C(=O)NCCCN2CCOCC2)oc2c1C1(CCC2)SCCS1 | -18% | -16%
O=C(CSc1nc2[nH]ncc2c(=O)[nH]1)Nc1ccccc1C(F)(F)F | -12% | -11%
CC(C)[C@H](NC(=O)[C@H](Cc1ccccc1)n1c(=O)[nH]c2ccccc2c1=O)C(=O)N1CCC[C@@H]1C(=O)O | 9% | -9%
Cc1ccc(CNC(=O)c2ccc3c(c2)N(Cc2cccc(C)c2)C(=O)CS3)cc1 | -3% | -10%
CCN1CCN(c2ccc(S(=O)(=O)N3CCCCC3)cc2NC(=O)c2cccc(C)c2)CC1 | -17% | u
CCOC(=O)N1CCN(C(=O)C(=O)NN)CC1 | -9% | 0%
COc1ccc(-c2nc(CS(=O)CC(=O)NCCCN3CCCC(C)C3)c(C)o2)cc1OC (stereo unspecified) | -25% | -2%
CN1C(=O)c2ccc(C(=O)NCc3ccc4c(c3)OCO4)cc2C1=O | -6% | -11%
CN(c1ccc(C(=O)N2CCN(c3ccccc3F)CC2)cc1)S(=O)(=O)c1ccccc1 | -5% | -19%
COc1ccc2[nH]cc(CCNC(=O)c3ccccc3Cl)c2c1 | -4% | u
COc1ccc(-c2[nH]ncc2-c2cscn2)c(O)c1 | -13% | u
COc1ccc(C(=O)c2c[nH]c(C(=O)NCc3ccco3)c2)cc1 | -11% | x
CC(=O)NCc1ccc(-c2csc(NC(=O)CCc3nc4ccccc4c(=O)[nH]3)n2)s1 | -7% | -13%
CCN1C[C@@H]2[C@@H]3C(=O)N(Cc4ccccc4)C(=O)[C@@H]3[C@](CC)(C1=O)N2C(=O)c1ccc(Br)cc1 | -14% | i
Cc1ccc(-c2cnc(C(O)c3ccc(C)cc3)[nH]2)cc1 (stereo unspecified) | -11% | i
CC(=Nc1ccccc1)C1=C(O)C(Cc2cccc(F)c2)NC1=O (stereo unspecified) | u | -12%
COc1ccc(C(=O)CCC(=O)O)cc1 | -6% | i
Cc1ccccc1C(=O)NCC(=O)OCCOc1ccc(C(C)C)c(C)c1 | -15% | -12%
Cc1ccccc1OCC(O)Cn1c(NCc2ccco2)nc2c1c(=O)n(C)c(=O)n2C (stereo unspecified) | -20% | u
O=[N+]([O-])c1cc([N+](=O)[O-])c(Oc2ccc(F)cc2F)cc1NN1CCCCC1 | -21% | u
OC[C@@H]1CN(Cc2ccc(F)cc2)C[C@H](n2cnc3c(NCc4ccc(F)cc4)ncnc32)O1 | -16% | u
CCCCN(CC)CCNc1c(NC2CCN(C(=O)OCC)CC2)c(=O)c1=O | -8% | -14%
Cc1cccc(OCCC(=O)Nc2ccccc2C(N)=O)c1 | 1% | 51%[activator]
C[C@H]1CN([C@@H](C)CO)C(=O)Cc2cc(NC(=O)Cc3ccccc3)ccc2O[C@H]1CN(C)S(=O)(=O)c1cccs1 | -28% | -2%
CCCCCCCCCCCC(=O)N1CC(=O)NC(=O)C1 | -5% | -3%
Cc1ccc(NC(=S)N(Cc2ccccc2)Cc2cccs2)c(C)c1 | 6% | -5%
COc1ccc(NC(=O)c2c(Nc3ccccc3)sc(C(=O)c3ccc(F)cc3)c2N)cc1 | u | u
COc1ccc(Cl)cc1NC(=O)c1cc(S(=O)(=O)N2CCC(C)CC2)cn1C | -9% | -5%
CC(C)(C)N1CC(C(=O)Nc2ccc(C(N)=O)cc2)CC1=O (stereo unspecified) | -9% | -11%
Cc1ccc(NC(=O)CCS(=O)(=O)c2ccccc2)cc1S(=O)(=O)N1CCCCCC1 | -8% | -24%

Single records, from the list above:
Shown for COc1ccc(C(=O)CCC(=O)O)cc1 → Vaccinia Venus = -6%; Vaccinia mCherry = i
Shown for CCOC(=O)N1CCN(C(=O)C(=O)NN)CC1 → Vaccinia Venus = -9%; Vaccinia mCherry = 0%

New compounds follow
smiles | Vaccinia Venus | Vaccinia mCherry
COc1ccc(CN2C(=O)CSCC2(C)C(=O)NCc2ccccc2)cc1 (stereo unspecified) | -3% | -15%
CCOC(=O)N1CCN=C1SCc1ccc(Cl)c(Cl)c1 | -3% | -5%
CNC(=O)Cn1cc(S(=O)(=O)Cc2ccccc2F)c2ccccc21 | -4% | -13%
CN(C)/C=N/C(=S)Nc1cc(Cl)cc(Cl)c1 | -24% | -29%
Cc1ccc(-c2nc3scc(CCNS(=O)(=O)c4c(C)noc4C)n3n2)cc1 | -15% | -17%
CCN(CC)CC(=O)Nc1ccc(-c2ccc(NC(=O)CN(CC)CC)c(OC)c2)cc1OC | -20% | -27%
O=C(O)c1ccccc1CSc1ccccn1 | -8% | -4%
O=C(OCC(=O)N1CCCC1=O)c1cc(Cl)ccc1O | -11% | i

Overlap with the part before: three entries, then new ones.
smiles | Vaccinia Venus | Vaccinia mCherry
CCN(CC)CC(=O)Nc1ccc(-c2ccc(NC(=O)CN(CC)CC)c(OC)c2)cc1OC | -20% | -27%
O=C(O)c1ccccc1CSc1ccccn1 | -8% | -4%
O=C(OCC(=O)N1CCCC1=O)c1cc(Cl)ccc1O | -11% | i
N#CCSc1nc(-c2ccccc2)c2cc(Cl)ccc2n1 | -15% | -13%
NC(=O)C1(N2CCCCC2)CCN(C(=O)c2ccc(C#Cc3ccccc3)o2)CC1 | u | x
COc1cccc(OCC(O)CN2CCOCC2)c1 (stereo unspecified) | -6% | x
Oc1ccc(/C=N/Nc2ccnc3cc(Cl)ccc23)cc1O | -11% | u
CC(OC(=O)CSc1ccc([N+](=O)[O-])cc1)C(=O)NC1CC1 (stereo unspecified) | -14% | -16%
O=C(NCc1ccncc1)C(=O)NC1CC1 | 15% | -4%
Cc1cc(C)cc(NC(=O)c2cc(S(=O)(=O)N3CCOCC3)cn2C)c1 | -3% | -11%
O=C(COC(=O)c1ccc([N+](=O)[O-])s1)NC(=O)NCc1ccccc1 | -28% | -27%
CCOC(=O)CN(C)C(=O)C1CCCN1C(=O)OC(C)(C)C (stereo unspecified) | -5% | -15%
CCCOc1ccccc1Cn1c(=O)sc2ccccc21 | -2% | -3%
CCCOc1c(OC)cccc1C1CC(=O)Nc2cc3c(cc21)OCCO3 (stereo unspecified) | u | u
O=C(NCc1ccco1)C1CCN(S(=O)(=O)c2cccc([N+](=O)[O-])c2)CC1 | -1% | -2%
COc1ccc(/C=C/C(=O)N2CCN(S(=O)(=O)/C=C/c3ccccc3)CC2)cc1OC | -3% | -11%
CCCOc1ccc(OCCSc2ncccn2)cc1 | -13% | -20%
COC(=O)c1ccc([C@H]2CC(=O)O2)cc1 | u | 11µM*
CC(NC(=O)c1ccco1)C(c1cccs1)N1CCOCC1 (stereo unspecified) | 13% | 10%
Cc1nc2ccc([N+](=O)[O-])cc2c(=O)n1Cc1ccc(F)cc1 | -3% | i
O=C(NCCS(=O)(=O)N1CCc2ccccc2C1)c1ccccc1 | -6% | -2%
O=[N+]([O-])c1cccc(S(=O)(=O)NCCCN2CCOCC2)c1 | -9% | -19%
COC(=O)c1c(C)c(C)nc(N)c1C#N | -12% | x
CN(Cc1ccccc1)C(=O)COC(=O)c1cc(Cl)nc(Cl)c1 | -3% | i
CCOC(=O)c1sc2nc(C(C)C)c3c(c2c1N)CCC3 | -8% | -19%
Cc1ccc(C)c(CN2CCC(CNC(=O)Nc3ccc(F)c(Cl)c3)CC2)c1 | -27% | u
CCOC(=O)C1CCCN(C(=O)Cn2ncc3c(C)n(Cc4ccccc4F)c(C)c3c2=O)C1 (stereo unspecified) | -4% | 2%
CC(Oc1ccccc1F)C(=O)NN (stereo unspecified) | 1% | -9%
Cn1c(=O)n(C)c2cc(S(=O)(=O)Nc3ccc(F)cc3)ccc21 | -14% | -23%
Cc1cc(C)c(NC(=O)C(C)n2nc(C)c3sc4ccccc4c3c2=O)c(C)c1 (stereo unspecified) | -14% | -3%
CCN(C(=O)C1CCCO1)c1ccccc1 (stereo unspecified) | -11% | -19%
COc1cc(OC)cc(C(=O)Nc2ccc(-c3nc4ccccc4o3)cc2)c1 | -24% | u
O=C1NCN(c2ccccc2)C12CCN(C(c1nnnn1C1CCCCC1)C1CC1)CC2 (stereo unspecified) | -7% | i
O=C(C[C@@H]1C/C=C\C[C@H](NC(=O)OCC2c3ccccc3-c3ccccc32)C(=O)OC[C@H]2CCCN2C1=O)NCCO | -7% | i
Cc1ccc(-n2c3c(c(=O)[nH]c2=O)C(NS(=O)(=O)c2ccc(C)cc2)(C(F)(F)F)C(=O)N3)cc1 (stereo unspecified) | 2%&-14% | -15%&-15%
C[C@H](CO)N1C[C@H](C)[C@@H](CN(C)Cc2ccncc2)Oc2c(NS(=O)(=O)c3ccc(F)cc3)cccc2C1=O | 0% | i
COc1ccc(C(CNC(=O)c2ccc(S(=O)(=O)N(C)C)cc2)N2CCCCC2)cc1 (stereo unspecified) | -5% | 1%
c1ccc(-c2noc(CN3CCc4sccc4C3)n2)cc1 | -4% | -6%
Cc1cnn(C(=O)Cn2nc(C(F)F)c(Br)c2C)c1 | -4% | -4%
O=C(OCC1CCCO1)c1ccc2c(c1)N(Cc1cccc(Cl)c1)C(=O)c1ccccc1S2(=O)=O (stereo unspecified) | -4% | -7%
CC/C(=N/Nc1cccc(C)c1)c1cnnc(SC)n1 | -29% | u
COCCNC(=O)c1ccc2nc(Cc3ccccc3)oc2c1 | 13% | -8%
Cc1cc(C)n2ncc(/C(N)=N/OC(=O)c3ccccc3F)c2n1 | -21% | i
Cc1ccc(C(=O)NNC(=O)c2ccco2)cc1 | -6% | -7%
CCOC(=O)c1ccc(NC(=S)NC(=O)c2cncc(Br)c2)cc1 | -8% | -13%
Cc1cc(C)c2c(=O)[nH]c(SCC(=O)c3ccc(C)c(C)c3)nc2n1 | 10% | i
Cc1nnc(NC(=O)CSc2nc(C3CCCCC3)nc3ccccc23)s1 | -12% | i
O=C(O)CC(NC(=O)CCC1CCCCC1)c1cc([N+](=O)[O-])ccc1Cl (stereo unspecified) | 2% | -1%
O=C(O)CCCCCN1C(=O)c2ccc(C(=O)O)cc2C1=O | -13% | i
Cc1ccccc1C(=O)NNc1ccc(-c2csnn2)cc1 | -8% | -6%
CC1(c2ccc(Cl)cc2)NC(=O)N(CN2CCOCC2)C1=O (stereo unspecified) | 2% | 9%
Cc1ccc(-n2nnc3c(=O)n(Cc4cc(C)ccc4C)cnc32)cc1 | -6% | -1%
CCCCC(=O)N1C/C=C\[C@H](c2ccc(OC)cc2)N(Cc2ccc(F)cc2)C(=O)[C@@H]1C | -17% | i
Cc1ccccc1NC(=O)NCC1CCN(C(=O)OC(C)(C)C)CC1 | -23% | -11%
O=C(c1cn(-c2ccccc2)nc1-c1cccs1)N1CCOCC1 | -6% | i
Cc1ccc(-c2cc(C(=O)NCCCN3CCOCC3)no2)cc1 | -11% | u
COc1cccc(CN2CC(C(=O)NCc3ccc(Cl)s3)CCC2=O)c1 (stereo unspecified) | -7% | i
CCN(c1ccccc1)S(=O)(=O)c1ccc(C(=O)Nc2nccs2)cc1 | -28% | x
O=C(NCCCN1CCCC1=O)c1ccc(NS(=O)(=O)c2ccccc2)cc1 | -3% | -16%

Next section.
smiles | Vaccinia Venus | Vaccinia mCherry
CC(C)CNS(=O)(=O)c1ccc(OCC(=O)Nc2ccc3c(c2)OCCO3)cc1 | -5% | -8%
O=C(CSc1ncn[nH]1)NC12CC3CC(CC(C3)C1)C2 | -11% | -6%[1.46 µM]
Cc1cc(C)n2c(NC3CCCCC3)c(-c3ccccn3)nc2n1 | 4% | -7%
C=CCn1c(SCc2cccc(C#N)c2)nnc1-c1ccccc1O | 4% | 1%
CCC(=O)Nc1cccc(C(=O)/C=C/c2cc(Br)ccc2OC)c1 | u | u
O=C(CNC(=O)c1ccccc1F)N/N=C\C=C\c1ccccc1 | -5% | -10%
COc1cc(/C=N/n2c(C3CCCCC3)n[nH]c2=S)cc(OC)c1O | -6% | u
CN(C)c1ncnc2c1ncn2[C@H]1CN(CCN2CCOCC2)C[C@@H](CO)O1 | 2% | 3%
COc1ccc(NC(=O)Cn2c(=O)oc3cc(S(=O)(=O)N4CCCCC4C)ccc32)cc1 (stereo unspecified) | -7% | -6%
CN1C2CCC1CC(NS(=O)(=O)c1cc(Cl)c(Cl)cc1Cl)C2 (stereo unspecified) | -2% | -19%
CCn1c(N2CCN(C(=O)Nc3ccc(F)cc3)CC2)nc2ccccc21 | u | x
COc1ccccc1Cc1c(-c2ccccc2)nc2cc(C)c(Br)c(C)n12 | 4% | -3%
O=[N+]([O-])c1ncccc1OCc1ccc(Br)cc1F | 4% | 3%
CCOC(=O)c1ccc(N2C(=O)C(CC(N)=O)N(CCc3ccc(OC)c(OC)c3)C2=S)cc1 (stereo unspecified) | 0% | -4%
CC1=CC(C)(C)n2c(O)c(N=N)c3cc(C)cc1c32 | u | u
Cc1occc1C(=O)Nc1nnc(C2CCCCC2)s1 | -15% | -9%
Cc1ccc(C2N=C(Nc3nc4ccccc4o3)NC3=C2C(=O)CC(C)(C)C3)cc1 (stereo unspecified) | -8% | -15%
